From PubChem
AID923: qHTS Assay for Allosteric/Competitive Inhibitors of Caspase-1: Spectroscopic Profiling in AFC Spectral Region; compound fluorescence, AFC spectral region (405/520 nm); almost no hit is shown here; Potency, µM (titrated, usually from 57.5 µM), for inactives: at the top dose fluorescence increase, most hits filed as activators; 75,000 tested, 1.1% active; active = well fitted activation curve with a large enough effect; inconclusive = small, poorly fitted or top-dose-only effect;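 note: potency is the fitted concentration of half-maximal effect; 0% is about no effect; scaled to a free AFC standard on each plate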
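Titrations up to 57 uM read every 20 sec for 3 min (405/520 nm) with 50 nM caspase 1 and 5 uM Ac-WEHD-AFC, pH 7.5 HEPES buffer. Fluorescence-vs-time intercept gave baseline, scaled against on-plate AFC standard.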
A488 autofl: qHTS Assay for Spectroscopic Profiling in A488 Spectral Region. compound autofluorescence, A488 spectral region, dye equivalency; active compounds read high. max dye equivalency, M. 59,000 tested, 0.1% active. AID 591, 2007; active = above 10 nM dye equivalent; inconclusive = 1 to 10 nM; inactive = 1 nM or less; about half of its hits are not listed in these tables;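 note: highest value over a series up to 38 µM; compound alone in buffer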
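Autofluorescence read at ex 480/em 540 nm after 15 min RT in 100 mM Tris pH 8.0; compound signal normalized to A488 standard series on each plate, reported as dye-equivalent concentration at each test concentration.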
TSHR agonist: qHTS Assay for Agonists of the Thyroid Stimulating Hormone Receptor. Thyrotropin receptor (Homo sapiens), P16473. HEK293-CNG-TSHR cells (CNG channel as cAMP sensor), membrane potential dye, cAMP. Potency, µM (series often up to 57.1 µM), for inactives: at the highest dose activation, most hits filed as activators. 73,000 tested, 0.48% active. AID 926, 2007; active = well fitted activation curve of enough size with the parental cells flat; inconclusive = any curve in the parental cells; inactive = parental cells flat and receptor cells flat or falling; note: potency is the fitted concentration of half-maximal effect; % of control where 0% means no effect; weak receptor curves with flat parental cells got no call and are not listed
Target sequence (P16473 whole entry, looked up): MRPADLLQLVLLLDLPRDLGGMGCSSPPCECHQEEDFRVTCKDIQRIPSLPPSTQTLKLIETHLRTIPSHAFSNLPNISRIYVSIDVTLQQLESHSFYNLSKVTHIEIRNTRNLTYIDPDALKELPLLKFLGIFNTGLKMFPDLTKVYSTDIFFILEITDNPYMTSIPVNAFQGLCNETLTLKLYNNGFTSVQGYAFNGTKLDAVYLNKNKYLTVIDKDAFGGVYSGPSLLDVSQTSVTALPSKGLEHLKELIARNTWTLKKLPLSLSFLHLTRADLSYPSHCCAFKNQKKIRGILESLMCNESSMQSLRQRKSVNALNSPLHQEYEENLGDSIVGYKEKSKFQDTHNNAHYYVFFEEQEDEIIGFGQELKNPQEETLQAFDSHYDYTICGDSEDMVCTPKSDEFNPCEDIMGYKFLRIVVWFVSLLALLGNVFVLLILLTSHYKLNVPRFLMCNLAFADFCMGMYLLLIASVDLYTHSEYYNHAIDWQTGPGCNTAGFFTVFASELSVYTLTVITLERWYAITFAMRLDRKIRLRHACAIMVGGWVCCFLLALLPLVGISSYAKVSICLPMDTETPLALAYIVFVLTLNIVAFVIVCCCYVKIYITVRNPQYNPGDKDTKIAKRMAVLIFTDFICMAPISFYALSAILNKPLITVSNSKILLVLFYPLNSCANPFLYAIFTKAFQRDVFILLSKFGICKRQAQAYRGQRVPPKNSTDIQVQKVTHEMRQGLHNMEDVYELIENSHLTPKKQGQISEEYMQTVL
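HEK 293 cells stably expressing TSHR and a modified CNG channel, with CNG-only parental cells as counterscreen, were preloaded 60 min at room temperature with membrane potential dye containing 100 uM RO 20-1724. Compound exposure was 30 min, and depolarization was read as fluorescence at 590 nm.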
A647 autofl: qHTS Assay for Spectroscopic Profiling in A647 Spectral Region. Compound fluorescence, A647 channel (570/671 nm), Tris buffer. max dye-equivalent concentration, M. 59,000 tested, under 10 active; active means above 1 µM dye equivalent; inconclusive means 0.1 to 1 µM; inactive means 0.1 µM or less;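 note: values scaled relative to a standard on each plate; highest value over a series up to 38 µM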
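Tris 100 mM pH 8.0; cpd + A647 stds pin-transferred; 15 min RT; CCD imager, ex 570/em 671. Output = A647-equivalent conc. per cpd conc.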
Resorufin fluor: qHTS Assay for Spectroscopic Profiling in Resorufin Spectral Region; Compound fluorescence, resorufin region 547/598 nm, buffer; active compounds read high; max dye-equivalent concentration, M; 59,000 tested, 0.04% active; AID 588, 2007; active = above 10 nM dye equivalent; inconclusive = 1 to 10 nM; inactive = 1 nM or less; a few of its hits are not listed in these tables; note: highest value over a series up to 38 µM
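Dye-equivalent concentration values derive from comparing each well's 547/598 nm fluorescence against resorufin standards included on every plate. Incubation was 15 min at room temperature in 100 mM Tris, pH 8.0.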
The depositor's hits bear a star; i = inactive; ? = inconclusive; . = not tested or not shown; & = joins results of further samples; [ ] = another dose, or the depositor's remark.

SMILES	AID923	A488 autofl	TSHR agonist	A647 autofl	Resorufin fluor
COc1ccc2[nH]cc(CCNc3ccnc(-c4ccc(C(=O)N(C)C)cc4)n3)c2c1	2.0%	i	7%	1e-09	i
O=C(CSc1n[nH]c(-c2ccccc2)n1)c1ccc(O)c(O)c1	-3.0%	i	-2%	5.6e-09	i
COc1cc(SC)ccc1C(=O)OC1CCOC1=O (stereo not drawn)	0.5%	i	?	1e-09	i
O=C(COC(=O)C1CCCCC1)Nc1ccc(N2CCCCC2)cc1	-0.5%	i	4%	1e-09	i
Cc1ccc(C(=O)N(c2ccccn2)C(C)c2ccco2)cc1 (stereo not drawn)	-1.3%	i	17%	3.7e-09	i
CC(C)N1CC23C=CC(O2)C(C(=O)OCc2ccccc2)C3C1=O (stereo not drawn)	1.6%	.	-11%	.	.
CC(=O)Oc1cccc(N2C(=O)C3C4C=CC(C4)C3C2=O)c1 (stereo not drawn)	1.0%	.	1%[11.4 µM]	.	.
COc1ccccc1CN(C(=O)c1ccco1)C(C(=O)NC1CCCC1)c1ccncc1 (stereo not drawn)	3.0%	i	?	2.1e-08	i
NS(=O)(=O)c1ccc(C(=O)O)cc1	1.8%[11.5 µM]	i	1%[11.4 µM]	1.3e-08&3.6e-08	i
COc1cc(C(=O)N2CCC(c3nc(-c4cccnc4)no3)CC2)cc(OC)c1OC	1.1%	i	-2%	2.8e-09	i
CCn1ncc(Br)c1C(=O)Nc1cc(C)ccc1F	-0.2%	i	11%	1.5e-08	i
O=C1c2cccnc2-c2ncccc21	0.0%	i	1%	2.8e-08	i
Cc1ccc(S(=O)(=O)n2nc(OC(=O)c3ccco3)cc2N)cc1	-0.9%	i	0%	8.5e-09	i
O=C1CC(N2CCOCC2)C(=O)N1CCN1C(=O)CC(N2CCOCC2)C1=O (stereo not drawn)	3.1%	i	-2%	1.2e-08	i
O=C(Nc1ccccc1)c1cccc(N2C(=O)CCC2=O)c1	0.4%	i	6%	1e-09	i
CN1[C@@H]2CC(OC(=O)[C@@H](CO)c3ccccc3)C[C@H]1[C@H]1O[C@H]12 (stereo partly drawn)	0.4%	i	.	1e-09	i
CS(=O)(=O)N(CC(=O)NCCSC1CCCCC1)c1ccc2c(c1)OCO2	-2.5%	i	?	4.1e-09	i
Cc1ccc(S(=O)(=O)N2CCC(C(=O)N3CCC[C@H]3C(=O)NCc3ccccc3)CC2)cc1	0.6%	i	5%	1e-09	i
O=C(NCN1C(=O)C2C3C=CC(C3)C2C1=O)OC1CCCCC1 (stereo not drawn)	0.0%	i	5%	1e-09	i
COc1ccc2c(c1)CCc1cc(C(=O)N3CCN(c4ccc(N5CCOCC5)nn4)CC3)sc1-2	2.2%	.	2%	.	.
Cc1ccc(S(=O)(=O)NCCNC(=O)C2CCCNC2=O)cc1 (stereo not drawn)	-2.0%	i	-11%	4.7e-09	i
CCC1(c2ccccc2)NC(=O)N(CC(=O)Nc2cccc(C#N)c2)C1=O (stereo not drawn)	0.4%	i	-7%	3.8e-09	i
CCOC(=O)C1CCCN(C(=O)CSc2nccn2C)C1 (stereo not drawn)	-0.3%	i	1%	2e-09	i
O=C(CSc1nnc(-c2cccnc2)n1Cc1ccccc1)N1CCOCC1	1.0%	i	-3%	6.6e-08	i
Cn1c(SCC(=O)Nc2cccc(O)c2)nnc1-c1ccc(S(=O)(=O)N2CCOCC2)cc1	0.7%	i	0%	5.1e-09	i
SMILES	AID923	A488 autofl	TSHR agonist	A647 autofl	Resorufin fluor
C=CCc1c(C)[nH]c2ccc(C)cc2c1=O	0.7%	i	9%	1e-09	i
CCOn1c(=O)c(-c2ccc(OC)cc2)[n+]([O-])c2ccccc21	1.7%	i	-1%	1e-09	i
COc1ccc(OCC(=O)Nc2ccccc2OC)cc1	3.4%	.	?	.	.
CC(=O)OCCN1C(=O)c2cccnc2C1=O	-6.1%	i	-1%	1.3e-08	i
CC(C)C(NS(=O)(=O)c1ccc2c(c1)oc(=O)n2C)C(=O)N1CCN(C2CCCCC2)CC1 (stereo not drawn)	2.0%	.	10%	.	.
CN(C(=O)c1ccc(=O)[nH]c1)C1(C(=O)NC2CCCCC2)CCCCC1	-0.6%	i	6%	1.4e-08	i
Cc1ccc(NC(=O)C2CC=CCC2C(=O)N2CCCCC2)cc1 (stereo not drawn)	0.1%	i	17%	1e-09	i
O=C(C1CCCCC1)N1CCC(c2nc3c(nnn3Cc3ccccc3Cl)c(=O)[nH]2)CC1	-4.4%	i	11%	1e-09	i
CCOc1ccccc1NC(=O)c1c(NC(=O)CNCc2ccco2)sc2c1CCC2	1.7%	.	15%	.	.
Cc1noc(C)c1-c1nccc(N2CCNCC2)n1	-1.5%	i	9%	1e-09	i
CN(C)Cc1ccccc1-c1cc(-n2ccnc2)ncn1	-3.4%	i	8%	3.5e-08	i
COc1ccccc1C(=O)Nc1ccc(-c2nnc(SCC(=O)O)n2C)cc1	0.3%	i	2%	1e-09	i
Cc1ccc(NC(=O)COC(=O)C2CCC(=O)N2)c(S(=O)(=O)N2CCOCC2)c1 (stereo not drawn)	0.8%	i	0%	1.5e-08	i
Cc1cn2nc(N)c3ccccc3c2n1	0.5%	i	2%	2.9e-08	i
Cc1ccc(CNC(=O)C2C3C=CC4(CN(Cc5cccnc5)C(=O)C24)O3)cc1 (stereo not drawn)	-0.4%	i	5%	1.7e-09	i
COc1ccc(C(=O)CSc2nnc(-c3ccc(S(=O)(=O)N4CCOCC4)cc3)o2)cc1	0.8%	i	14%	1.2e-08	i
O=C(O)CCc1nc(-c2cccs2)no1	-0.4%	i	1%[11.4 µM]	2.2e-08	i
O=c1c2ccccc2nc(COc2ccccc2)n1/N=C/c1ccco1	1.2%	i	30%	2.8e-08	i
C[C@]12C=CC(=O)C=C1CC[C@@H]1[C@@H]2[C@@H](O)C[C@@]2(C)[C@H]1CC[C@]2(O)C(=O)COC(=O)CCC(=O)O	.	i	.	1e-09	i
CCOCC(=O)Nc1cc(C(=O)OC)ccc1C(=O)OC	-1.1%	i	6%	2.6e-08	i
O=C(CN1CCN(c2ccccn2)CC1)NC(=O)NC1CCCCC1	-0.1%	i	-1%	1.5e-08	i
CCCn1c(=O)c2[nH]c(-c3ccc(OCC(=O)NCCN)cc3)nc2n(CCC)c1=O	-3.4%	i	6%	5e-08	i
CC(=O)C1=C(C)NC(SCC(=O)c2ccccc2)=C(C#N)C1CC(C)C (stereo not drawn)	0.9%	i	10µM*	4.2e-08	i
O=C(Nc1ccc(OC(F)(F)F)cc1)C1=NCCN1	2.0%	i	?	1e-09	i
Cc1cc(C)c(O)c(Cc2cccc(Cc3cc(C)cc(C)c3O)c2O)c1	-0.4%[11.5 µM]	i	-2%[11.4 µM]	1e-09	i

Looked up by structure from above, 5 records:
SMILES	AID923	A488 autofl	TSHR agonist	A647 autofl	Resorufin fluor
CC(=O)OCCN1C(=O)c2cccnc2C1=O	-6.1%	i	-1%	1.3e-08	i
O=C(Nc1ccc(OC(F)(F)F)cc1)C1=NCCN1	2.0%	i	?	1e-09	i
COc1ccccc1C(=O)Nc1ccc(-c2nnc(SCC(=O)O)n2C)cc1	0.3%	i	2%	1e-09	i
CCOn1c(=O)c(-c2ccc(OC)cc2)[n+]([O-])c2ccccc21	1.7%	i	-1%	1e-09	i
Cc1ccc(NC(=O)C2CC=CCC2C(=O)N2CCCCC2)cc1 (stereo not drawn)	0.1%	i	17%	1e-09	i

Single records, from the list above. Order of values: AID923, A488 autofl, TSHR agonist, A647 autofl, Resorufin fluor
`Cc1ccc(S(=O)(=O)NCCNC(=O)C2CCCNC2=O)cc1` (stereo not drawn) across the screens: -2.0%, i, -11%, 4.7e-09, i
`C[C@]12C=CC(=O)C=C1CC[C@@H]1[C@@H]2[C@@H](O)C[C@@]2(C)[C@H]1CC[C@]2(O)C(=O)COC(=O)CCC(=O)O` across the screens: ., i, ., 1e-09, i
`CN(C)Cc1ccccc1-c1cc(-n2ccnc2)ncn1` across the screens: -3.4%, i, 8%, 3.5e-08, i
`COc1ccc2[nH]cc(CCNc3ccnc(-c4ccc(C(=O)N(C)C)cc4)n3)c2c1` across the screens: 2.0%, i, 7%, 1e-09, i

Next section:
SMILES	AID923	A488 autofl	TSHR agonist	A647 autofl	Resorufin fluor
COc1cccc(CNc2nc3ccccc3n2CCN2CCCCC2)c1	2.3%	i	.	1e-09	i
CCNC(=O)N1c2ccc(OCC)cc2C(C)=CC1(C)C	17%	i	?	1e-09	i
Cn1ncc2nc[nH]c(=O)c21	.	i	.	1e-09	i
Cc1nc(NCc2ccccc2)c2nc(-c3ccccc3)n(CCN(C)C)c2n1	0.3%	.	?	.	.
O=c1c(-c2ccccc2)c(O)nc2ccccn12	4.6%	i	-11%	5.4e-08	i
O=C1CC(c2cccs2)CC(O)=C1C=NCCN1CCNCC1 (stereo not drawn)	1.6%	.	8%[11.4 µM]	.	.
COc1cc(C2c3c(-c4ccccc4)n[nH]c3C(=O)N2c2ccccc2)ccc1O (stereo not drawn)	-0.7%	i	?	4.9e-09	i
CCC1CCCCN1C(=O)CSc1nnc(CNC(=O)COc2ccc(Cl)cc2)o1 (stereo not drawn)	-0.3%	i	4%[11.4 µM]	1.2e-09	i
FB(F)F	0.5%	.	-1%	.	.
CCCNC(=O)c1c(C)cc(=O)oc1C	-0.7%	i	1%	2.9e-08	i
O=C(Nc1ccc(S(=O)(=O)Nc2cnc3ccccc3n2)cc1)c1ccc(Br)o1	-1.7%	i	7%	8e-09	i
Nc1c(C(=O)c2cccs2)oc2ccccc12	3.5%	i	0%	4.1e-09	i
C=C(C)CSc1nnc([C@@H]2CCCN2C(=O)OC(C)(C)C)o1	-0.1%	i	?	2.8e-08	i
Cn1c(CCCNC(=O)c2cccs2)nc2ccccc21	-0.6%	i	?	1e-09	i
CC(C)(C)NC(=O)c1cnn2c1NC(c1ccc(F)cc1)CC2C(F)(F)F (stereo not drawn)	1.8%	.	-7%	.	.
COCC(=O)N1CCC2(CC1)CN(c1ccccc1)C2	-0.2%	i	4%	9.3e-09	i
Cc1cc(Cl)ccc1OC(C)C(=O)Nc1ccccc1N1CCOCC1 (stereo not drawn)	-4.4%	i	?	1.2e-08	i
CC1CN(C2CCN(S(=O)(=O)Cc3ccccc3)CC2)CC(C)O1 (stereo not drawn)	.	i	.	1e-09	i
CCc1ccc(CCC(=O)O)nc1	1.2%[11.5 µM]	i	1%[11.4 µM]	1.2e-08	i
CC(C)(C)c1csc(NC(=O)c2ccc(Cl)s2)n1	-2.3%	i	12%	1e-09	i
O=C(N/N=C1/C[C@@H](O)[C@@H](O)[C@@H]2[C@@H]3C(=O)N(Cc4ccccc4)C(=O)[C@H]3CC[C@H]12)OCc1ccccc1	-2.7%[11.5 µM]	.	-3%[11.4 µM]	.	.
Cc1ccnc(N2CCC(C(=O)NC3CCCCCC3)CC2)n1	-0.7%	i	6%	9.3e-09	i
COCCN1Cc2cccc(C(=O)NCc3ccccc3OC)c2C1=O	-1.3%	i	16%	2.2e-08	i
O=C(C1CCN(C2CC(=O)N(c3cccc(Cl)c3)C2=O)CC1)N1CCCC1 (stereo not drawn)	0.6%	i	-4%	1.2e-09	i
Cc1ccc2c(c1)c1c(n2CC2COC(C)(C)O2)C(=O)CCC1 (stereo not drawn)	3.4%	.	?	.	.
c1ccc2occc2c1	-2.9%	.	5%	.	.
Cc1cccn2c(=O)c3cc(C(=O)N(C)C)n(C)c3nc12	21%	i	-2%	1e-09	i
O=C(NC12CC3CC(CC(C3)C1)C2)c1ccc(=O)oc1	-1.4%	i	3%	2.1e-08	i
Cc1cccc(NC(=O)COc2ccc(Br)cc2C)n1	-1.2%	.	?	.	.
CCCCN(C)C(=O)C1CCC(=O)N(c2cc(OC)c(OC)c(OC)c2)C1c1ccc(OC)cc1 (stereo not drawn)	2.1%	i	3%	2.2e-08	i

An excerpt. The share of hits here may be higher or lower than overall.
